Screens as filed in PubChem.
Vaccinia Venus: inhibitors of vaccinia virus (Venus reporter); Vaccinia virus Venus reporter expression, fluorescence; Potency, µM (doses to about 36.5 µM), for inactives: at the top dose activity change, negative = inhibition, usual class: inhibitors; actives 0.46% (n = 330,000); AID 720580; active means well fitted inhibition curve with a large enough effect; inconclusive means small, poorly fitted or top-dose-only effect; inactive means no such curve, though single readings can be large or run the other way; tested in A549 cells; further: nearly all actives have a fitted effect of over 30% in size; inactives centre near -10
Vaccinia mCherry: vaccinia inhibition (mCherry reporter) | Potency, µM (top dose mostly 36.5 µM), for the others: at the top dose activity change, negative = inhibition, actives largely listed as inhibitors | AID 720579 | Vaccinia virus mCherry reporter infection, fluorescence; about a quarter of the inactives have no number | actives 0.63% (n = 310,000); active = well fitted inhibition curve with a large enough effect; inconclusive = small, poorly fitted or top-dose-only effect; inactive = no such curve, though single readings can be large or run the other way; tested in A549 cells; further: nearly all actives have a fitted effect of over 35% in size; inactives centre near -10
The depositor's hits bear a star; i = inactive; ? = inconclusive; · = no result given; & = joins results of further samples; [ ] = dose if it differs, or a comment. On the % scale 0 is the no-effect control and ±100 the full control effect; potency means the concentration at half of the fitted maximal effect.

smiles	Vaccinia mCherry	Vaccinia Venus
O=C1COc2ccc(-c3csc(NCC4CCCO4)n3)cc2N1 (centres undefined)	i	-5%
CC1CCCN(C(=S)NC2CCCC2)C1 (centres undefined)	-3%	-2%
O=C1CC(c2cc(F)ccc2F)c2cc3c(cc2N1)CCC3 (centres undefined)	-6%	?
CN1OC[C@@H]2CN[C@H](c3ccc(-c4ccc(C#N)cc4)cc3)C[C@@H]21	i	-19%
Cn1c(=O)c2cc(NC(=S)NC3CCCCC3)ccc2n1Cc1ccc(Cl)cc1	-12%	-6%
CCSc1cc(N2CCCC2)nc(-c2cccc(C)c2)n1	i	1%
COC(=O)CSC1=C(C#N)C(c2ccsc2)CC(=O)N1 (centres undefined)	i	?
COC(=O)C1=C(C(=O)OC)[C@]2([C@H]3C/C=C\CN[C@@H](Cc4ccccc4)C(=O)N3Cc3ccccc3)C=C[C@H]1O2	-11%	-27%
O=C(CCN1C(=O)COc2ccccc21)NCCC1=CCCCC1	-18%	-7%
CCOc1ccc(C(=O)NNC(=O)c2cc(S(=O)(=O)N3CCOCC3)ccc2Cl)cc1	-14%	-11%
COc1ccc(S(=O)(=O)NCc2ccc3c(c2)CCN3C(C)=O)cc1OC	-4%	-6%
COc1ccccc1C(=O)Nc1ccccc1OCc1cc(=O)n2cc(C)sc2n1	14%	13%
CCOC(=O)C(=O)NC1CCSC1=O (centres undefined)	-7%	-17%
COc1ccccc1/C=N/NC(=O)CC(=O)Nc1ccc(Cl)c(Cl)c1	-15%	-9%
COc1ccc(CNC(=O)CN(Cc2ccc(F)cc2)C(=O)CCC(=O)Nc2nccs2)cc1	-1%	-10%
O=C(OCC(=O)c1cccs1)c1cccc(C(=O)OCC(=O)c2cccs2)n1	-13%	-9%
CCCCNC(=O)O/N=C(\N)CS(=O)(=O)C(C)(C)C	-12%	-12%
COc1ccccc1CNC(=O)/C=C/c1cc2c(cc1Br)OCO2	·	-7%
Cc1ccc(C)c(S(=O)(=O)Nc2ccc(C(=O)NCCc3ccccn3)cc2)c1	-15%	-11%
CC(=O)O/N=C/c1c(Cl)n(C)c2ccccc12	-29%	-20%
O=C(NCCO)c1ccc2c(c1)S(=O)(=O)c1ccccc1C2=O	?	-8%
O=C(COC(=O)c1cc(=O)[nH]c2ccccc12)Nc1nc(-c2ccc(F)cc2)cs1	-12%	-12%
CCn1nnc2cc(C(=O)NCC(c3ccccc3OC)N(C)C)ccc21 (centres undefined)	-8%	-6%
CC(C)(C)c1ccc(C(=O)NC(=S)NCc2cccnc2)cc1	-13%	-24%
O=C(C1=C(O)C(=O)N(CC2CCCO2)C1c1ccccc1)c1ccco1 (centres undefined)	-1%	-7%
CN1C(=O)Cc2cc(S(=O)(=O)CCC(=O)N3CCN(c4cccc(Cl)c4)CC3)ccc21	-9%	-5%
COc1cccc(CCNC(=O)CC2C(=O)NCCN2Cc2ccc(Cl)c(F)c2)c1 (centres undefined)	i	-1%
COc1ccc(NC(=S)N2CCC(NC(=O)C3CCCCC3)CC2)cc1	-14%	-12%
CSCC[C@H](NC(=O)OC(C)(C)C)C(=O)N1CCC(C(=O)N[C@H](C(=O)O)C(C)C)CC1	-18%	0%
OCCSc1nnc(Nc2ccccc2)s1	-3%[1.46 µM]	-21%

As entered above:
COc1ccccc1C(=O)Nc1ccccc1OCc1cc(=O)n2cc(C)sc2n1 @ Vaccinia Venus = 13%
O=C1COc2ccc(-c3csc(NCC4CCCO4)n3)cc2N1 (centres undefined) @ Vaccinia Venus = -5%

Exported with values under each structure: entries from further up.
Screens in order – Vaccinia mCherry, Vaccinia Venus
CCOC(=O)C(=O)NC1CCSC1=O (centres undefined)
  -7%, -17%
COc1ccccc1/C=N/NC(=O)CC(=O)Nc1ccc(Cl)c(Cl)c1
  -15%, -9%

2 records picked at random from the list so far, as already listed:
smiles	Vaccinia mCherry	Vaccinia Venus
CCSc1cc(N2CCCC2)nc(-c2cccc(C)c2)n1	i	1%
CCCCNC(=O)O/N=C(\N)CS(=O)(=O)C(C)(C)C	-12%	-12%

(continued)
smiles	Vaccinia mCherry	Vaccinia Venus
Cc1cc(NC(=O)CCN2C(=O)C3C4C=CC(C4)C3C2=O)ccc1Br (centres undefined)	-15%	-13%
Cc1cc(C)c(-c2csc(-c3cc4ccccc4oc3=O)n2)cc1C	-11%	4%
O=C(CSc1nncn1-c1ccccc1)Nc1c(F)cccc1F	i	-9%
Cc1cc(=O)[nH]c(SCc2cc(=O)n3nc(C)sc3n2)n1	i	-1%
Cc1nc(-c2ccccc2)sc1C(=O)/C=C/c1ccccc1	-13%	-17%
COc1ccccc1N1C(N)=NC(N)=NC1(C)C	i	-17%&0%
Cn1cccc1CC(=O)NNC(=O)Nc1ccc(F)cc1	i	-13%
CCCCN1C(=O)C(CC(=O)NCCCCc2ccccc2)CC(C(=O)N(C(C)C)C(C)C)=C1C (centres undefined)	?	-22%
O=C(CNC(=O)c1ccc(Br)o1)NCCc1ccc(F)cc1	i	-2%
CC1(C(=O)N2Cc3ccccc3C2)CCN1C(=O)C1(c2ccccc2)CC1 (centres undefined)	-6%	-20%
COc1ccc(S(=O)(=O)N2CCC(C(=O)Nc3c(F)cccc3F)CC2)cc1	i	-15%
O=C(COc1ccc(Cl)cc1Cl)NC1CC1	-5%	-16%
COc1ccccc1C(=O)N(Cc1ccco1)C1CCS(=O)(=O)C1 (centres undefined)	·	-11%
CCC(C)(C)n1nnnc1C(c1ccccc1)N1CCN(Cc2ccccc2)CC1 (centres undefined)	i	-1%
Cc1noc(/C=C/N(C)C)c1S(=O)(=O)N1CCCC(C(=O)Nc2cccc(F)c2)C1 (centres undefined)	-13%	-7%
Cc1cccc(C(=O)N2CCN(C(=O)c3cccc(C)c3)C(C)C2)c1 (centres undefined)	-19%	-3%
C#CC[N+]1(C)[C@@H]2CC(OC(=O)C(CO)c3ccccc3)C[C@H]1C(O)C2 (some centres undefined)	-20%	-17%
COc1ccccc1OCc1csc(NC(=O)c2ccco2)n1	·	-21%
O=C(NC1CCCCCC1)c1cc(S(=O)(=O)N2CCOCC2)ccc1F	-17%	-6%
Cc1cc(OC(=O)c2ccc(Cl)cc2)cc(=O)n1C	·	-17%
CCN(CC)C(=O)c1[nH]cnc1C(=O)Nc1cccc(Cl)c1	5%	-11%
CCc1cc2c(SCC(=O)Nc3cc(C)on3)ncnc2s1	i	1%
CN=C(SCC(=O)c1cccc(Cl)c1)c1c(O)n(C)c(=O)n(C)c1=O	-17%[7.34 µM]	-20%[7.34 µM]
COC(=O)C1=CN(Cc2ccc(C)cc2)C=C(C(=O)OC)C1c1ccc(F)c(F)c1	-2%	-11%
CCOCCCNC(=O)c1cccc(NC(=O)C2=C(C)OCCS2)c1	i	-10%
COc1ccc(S(N)(=O)=O)cc1C(=O)OCC(=O)NC(C)(C#N)C1CC1 (centres undefined)	i	-12%
CCOc1ncccc1C(=O)Nc1cccc(-c2nc3cccnc3s2)c1	8%	-5%
Cc1ccc2c(c1)C1(C(=O)N2)N2CCCC2C(C(=O)c2ccc3ccccc3c2)C12C(=O)Nc1ccccc12 (centres undefined)	-19%	1%
Cc1cc(OCC(=O)c2ccc(C(F)(F)F)cc2)n2cnnc2n1	-17%	-16%
CCOC(=O)CSc1nc(N)c(C#N)c(-c2ccc(OC)cc2)c1C#N	-13%	-10%

Additional entries.
smiles	Vaccinia mCherry	Vaccinia Venus
COC(=O)c1ccsc1NC(=O)CN1C(=O)CCC1=O	-21%	-13%
O=C(O)CSCC(=O)Nc1ccc(Cl)cc1C(F)(F)F	i	-1%
COc1ccc2c(C(=O)CN3CCSCC3)c[nH]c2c1	-5%	-2%
COc1ccc(OC(=O)N(C)C[C@@H]2OCc3ccccc3-c3c(n(C)c4ccccc34)C(=O)N([C@H](C)CO)C[C@@H]2C)cc1	-28%	?
CCc1nc(N[C@@H](Cc2c[nH]c3ccccc23)C(=O)O)c2oc3ccccc3c2n1	1%	7%
CCCCOc1ccc(N2CC(C(=O)NCCc3ccc(OC)c(OC)c3)CC2=O)cc1 (centres undefined)	-11%	-13%
CC(CC(=O)NNC(=O)c1ccncc1)c1ccccc1 (centres undefined)	-23%	-6%
Cc1cc(=O)[nH]c(SCc2nnc(-c3ccccc3)o2)n1	·	-4%
COc1ccc(CCNC(=O)Cc2cc(OCc3ccccc3)c(OC)cc2[N+](=O)[O-])cc1OC	·	?
CC(=O)Nc1ccc(S(=O)(=O)Nc2cccc(-n3cnnn3)c2)cc1	-10%	-12%
COCCn1c(SCC(=O)N2CCCc3ccccc32)nc2cccnc21	-22%	-12%
COc1ccccc1/C=C/CN1CCC(Oc2ccc(C(=O)N3CCCCC3)cc2)CC1	-14%	?
CCCN1C(=O)C(Cc2nc3ccccc3c(=O)n2-c2ccccc2)c2ccccc21 (centres undefined)	-18%	-20%
CCOC(=O)COn1c(=O)c(-c2ccco2)[n+]([O-])c2ccccc21	-19%	-1%
COc1ccc2[nH]cc(C(=O)C(=O)N3CCCCC3)c2c1	-6%	-8%
COc1cccc(OCCSc2nc3ccccc3n2CC(=O)N2CCOCC2)c1	-3%	-3%
CCOc1ccc(NC(=O)C(C)Sc2nnc3cc(C)c4ccccc4n23)cc1 (centres undefined)	-18%	-16%
COc1cc(C(=O)N2CCN(C)C(C)C2)ccc1OC1CCN(C(C)=O)CC1 (centres undefined)	-21%	-19%
COc1cccc(N2CC(NC(=O)/C=C\c3ccccc3)CC2=O)c1 (centres undefined)	-3%[7.34 µM]	-5%[7.34 µM]
Cc1noc(C)c1NC(=O)N(C)C[C@H]1Oc2ccc(NS(=O)(=O)c3cn(C)cn3)cc2C(=O)N([C@H](C)CO)C[C@@H]1C	i	-3%
Cc1ccc(C(=O)/C=C/Nc2cccc([N+](=O)[O-])c2)o1	-16%	-21%
Cc1ccc(S(=O)(=O)Cn2nnnc2C(CC(C)C)N2CCN(C3CCCC3)CC2)cc1 (centres undefined)	-21%	-16%
Cc1onc(CO)c1C(=O)Nc1nccs1	-14%	7%
O=C(NCC1CC1)c1cccs1	29%	2%

Some of the entries so far, with each value named.
CCOc1ccc(NC(=O)C(C)Sc2nnc3cc(C)c4ccccc4n23)cc1 (centres undefined)
  Vaccinia mCherry: -18%	Vaccinia Venus: -16%
COc1ccc(OC(=O)N(C)C[C@@H]2OCc3ccccc3-c3c(n(C)c4ccccc34)C(=O)N([C@H](C)CO)C[C@@H]2C)cc1
  Vaccinia mCherry: -28%	Vaccinia Venus: ?
COc1cccc(OCCSc2nc3ccccc3n2CC(=O)N2CCOCC2)c1
  Vaccinia mCherry: -3%	Vaccinia Venus: -3%
CCCCOc1ccc(N2CC(C(=O)NCCc3ccc(OC)c(OC)c3)CC2=O)cc1 (centres undefined)
  Vaccinia mCherry: -11%	Vaccinia Venus: -13%
